LANA-H2A inh: blocks KSHV LANA binding to histone H2A/H2B | Q9QR71 | cell-free LANA-H2A/H2B peptide, fluorescence polarization | inhibition, % (test concentration not listed) | hit rate 0.6% among 320,000 | AID 2629; in the data active = inhibition mostly above about 10%, no sharp cut-off; inactive = mostly below about 6.7%;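 note: stock transfer was 7.5 nL into about 10 µL; 0% = median of vehicle wells and 100% = median of positive control wells; one replicate is shown; the record names a cut of 25% in any replicate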
T cruzi repl: blocks replication of Trypanosoma cruzi | T. cruzi beta-gal in NIH3T3, luminescence, 90 h | inhibition, % (no concentration beside the values) | hit rate 1.4% among 300,000;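 active = mean inhibition across valid replicates above about 55%, limit read from the data; inconclusive = mean below that limit but half or more replicates reach it; inactive = mean below it, under half of replicates reach it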;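 note: signal also drops with host cell toxicity which is not excluded here; 0% = plate median of DMSO wells and 100% = zero luminescence signal; higher percent means less beta-gal luminescence so fewer parasites; stock transfer was 50 nL into about 50 µL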
A1 inh: inhibitors of the anti-apoptotic protein A1, read as caspase activation. MEF A1-2A-BIM cells, Caspase-Glo 3/7 luminescence, 3 h; percent of clofoctol response, vehicle zero. hit rate 0.066% among 330,000. caspase activation, % (concentration not given with the values);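 active = over half of replicate activation scores above 10%, or exactly half above 10 with the replicate mean above 10; inconclusive = replicate mean below 10 yet half the replicates above 10; inactive = over half of replicates below 10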;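 note: wells of about 30 µL received 50 nL stock; many hits fall short of the cut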
Calb FLC: affects C. albicans growth with fluconazole. hit rate 0.57% among 300,000. growth inhibition, % (test concentration not listed). C. albicans CaCi-2 (fluconazole-resistant clinical isolate) + fluconazole, Alamar Blue growth, 48 h;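 active = most replicates above 75%; inconclusive = exactly half above 75%; inactive = most below 75%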;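 note: all wells also contain fluconazole at 8 µg/ml as a sub-toxic cotreatment; 0% = median of DMSO wells and 100% = median of geldanamycin control wells; wells of about 8 µL received 7.5 nL stock; the first replicate is given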
Beta cell apopt: blocks beta cell apoptosis; protection from apoptosis, % (no concentration beside the values); AID 435005; INS-1E cytokine-induced death, ATP luminescence, 48 h; percent of positive-control rescue, neutral wells zero; hit rate 0.8% among 300,000;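 active = all replicates at 75% or more, or half of them and the mean; inconclusive = half reach 75% but not the mean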;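 note: 0% = cytokine-treated negative control wells and 100% = positive control rescue; higher means more ATP so stronger rescue from cytokine killing; wells of about 40 µL received 100 nL stock; the first replicate is given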
rRNA inh HTS: selective bacterial rRNA inhibition in E. coli; GFP signal change (wild-type ribosome), % (test concentration not listed); hit rate 1.6% among 350,000; E. coli WT GFP vs humanized-ribosome RFP mutants, fluorescence, 24 h; stronger effect = lower value; DMSO median 0, no signal -100; AID 720706;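 active = significant combined selectivity score with lowered wild-type GFP, culture density cut under 30%, mutant RFP and density less affected; inactive = any of these conditions unmet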; note: one replicate is shown; some compounds called inactive have numbers as strong as hits
B2AR ag: activates human beta-2 adrenergic receptor causing internalization; Am2.2-beta2AR cells, FAP receptor internalization, flow cytometry; reference of the scale not given here; response, % (test concentration not listed); hit rate 0.43% among 340,000; AID 504454;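 active = response above a set limit, near 3 SD of response in nonfluorescent compounds, cut at about 42% in these data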;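 note: stock transfer was 100 nL into about 11 µL; a reference agonist was the positive control; negative values mostly stem from fluorescent compounds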
Target sequence (P07550 whole entry, looked up): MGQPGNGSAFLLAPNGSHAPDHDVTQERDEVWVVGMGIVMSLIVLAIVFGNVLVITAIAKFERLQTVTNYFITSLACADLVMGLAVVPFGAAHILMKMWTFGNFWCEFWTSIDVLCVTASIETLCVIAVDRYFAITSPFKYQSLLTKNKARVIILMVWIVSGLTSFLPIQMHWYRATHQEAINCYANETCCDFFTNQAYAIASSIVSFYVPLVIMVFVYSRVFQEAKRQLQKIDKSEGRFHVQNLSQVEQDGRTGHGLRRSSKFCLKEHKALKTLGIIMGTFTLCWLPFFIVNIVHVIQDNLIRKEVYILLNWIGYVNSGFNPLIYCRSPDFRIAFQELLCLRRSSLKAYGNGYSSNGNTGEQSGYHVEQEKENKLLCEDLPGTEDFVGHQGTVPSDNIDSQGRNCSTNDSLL
ALR inh: inhibitors of human sulfhydryl oxidase ALR. purified ALR, DTT oxidation, H2O2 HRP-luminol luminescence. inhibition, % (test concentration not listed). hit rate 3.8% among 290,000;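 active = mean and each replicate at 75% or more; inconclusive = only one of the two met; inactive = neither met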;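 note: stock transfer was 7.5 nL into about 7.5 µL; 0% = neutral wells and 100% = wells with inactivated enzyme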
Target sequence (P55789 whole entry, looked up): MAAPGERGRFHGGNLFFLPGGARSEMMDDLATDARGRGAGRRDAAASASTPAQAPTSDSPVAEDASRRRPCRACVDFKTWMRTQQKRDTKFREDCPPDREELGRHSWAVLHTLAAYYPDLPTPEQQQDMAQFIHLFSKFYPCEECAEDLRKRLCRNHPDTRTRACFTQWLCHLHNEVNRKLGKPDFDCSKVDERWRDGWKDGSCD
rRNA inh HTS OD600: recorded beside rRNA inh HTS, whose call it bears; OD600 change, %; measured here: OD600 growth;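 optical density of the mix in the first replicate; 0 = DMSO median and -100 = no signal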
rRNA inh HTS RFP: also measured in rRNA inh HTS; calls as there; RFP signal change, %; measured here: RFP humanized mutant strains;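 first replicate; 0 = DMSO median and -100 = no signal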
Starred values were filed as active, the others as inactive; ? = inconclusive; · = no result given. Not all compounds are listed; count on the stated rates, not on these rows.

SMILES | LANA-H2A inh | T cruzi repl | A1 inh | Calb FLC | Beta cell apopt | rRNA inh HTS | rRNA inh HTS OD600 | rRNA inh HTS RFP | B2AR ag | ALR inh
CC(=O)COc1ccc2c(-c3cccc([N+](=O)[O-])c3)cc(=O)oc2c1 | 6.0 | -7.5 | 0.1 | -9.7 | -5.2 | 9.5 | 4.2 | -1.3 | -9.8 | -5.8
COc1cc(/C=N/NC(=O)c2cccnc2)ccc1OCC(=O)N1CCOCC1 | 0.4 | -8.2 | -0.1 | -11.2 | · | 18.6 | 10.4 | -4.2 | -0.6 | 0.2
CCCC(=O)NC(C)c1nc2ccccc2[nH]1 (configuration not stated) | -1.4 | -4.9 | -0.2 | 0.8 | -1.4 | -1.0 | 8.0 | -5.4 | 2.5 | -17.9
Cc1nc(-c2ccccc2)sc1C(=O)NN | 1.2 | 6.6 | -1.0 | -2.1 | -2.4 | 20.4 | 11.2 | 3.6 | -4.3 | ·
CCOC(=O)C1CCN(C(=O)C2CCN(S(=O)(=O)c3cc(Cl)ccc3OCC)CC2)CC1 | 2.7 | 6.9 | -0.6 | · | -5.1 | -2.8 | -14.6 | 1.8 | 9.7 | -3.3
CC1CCN(C(=O)c2cc3c(=O)n4ccccc4nc3s2)CC1 | -6.3 | 5.5 | -1.9 | 3.7 | -0.1 | 8.6 | 0.7 | 9.3 | -16.6 | ·
Cc1cc(C)c2c(n1)SCC(=O)N2CC(=O)Nc1c(C)cccc1C | -8.9 | 4.9 | -0.7 | 2.2 | -3.8 | 19.2 | 15.4 | 0.2 | 4.5 | -3.7
CCC1(CC)Cc2ccccc2-c2nc(NN)[nH]c(=O)c21 | -3.5 | 6.0 | 1.1 | 19.8 | 17.8 | -14.9 | -19.2 | 4.2 | 19.3 | ·
O=C(COc1ccccc1)N1CCN=C1SCc1cccnc1 | 1.6 | -2.0 | 0.6 | -1.5 | -3.2 | · | · | · | 3.5 | 99.7*
O=C1c2ccsc2SCCN1Cc1ccc(F)cc1 | 0.1 | -0.2 | 0.5 | -28.0 | -10.7 | -4.3 | -4.8 | -0.7 | -2.4 | -4.6
CCn1c(=O)c2cc(C(=O)Nc3cccc(C(C)=O)c3)sc2c2ccccc21 | 1.1 | -10.6 | 0.1 | 2.5 | 5.2 | 1.7 | 26.0 | -2.5 | 8.3 | -4.0
CC(C)CSc1nc2c(=O)[nH][nH]c(=O)c2n1Cc1ccccc1 | -1.2 | -2.7 | 0.0 | -1.1 | -4.5 | · | · | · | 0.5 | 17.5
COc1ccc(Cn2nc(C)cc2C)cc1OC | 2.8 | 17.2 | -0.1 | -1.9 | -0.2 | · | · | · | -3.9 | ·
O=C(Cc1ccc([N+](=O)[O-])cc1)N1CCN=C1SCc1ccccc1 | -0.6 | -3.5 | -0.4 | -15.9 | 8.8 | 18.1 | 6.0 | -3.5 | 0.5 | -3.6
C=CCC1(C#N)C(=S)NC(C)=C(C(=O)OCC)C1c1ccccc1 (configuration not stated) | -3.3 | 11.5 | 0.0 | -0.4 | -0.3 | -26.3* | -19.2* | -3.7* | 0.1 | 10.4
COc1ccccc1CNC(=O)CN1C(=O)c2ccccc2S1(=O)=O | -8.3 | -4.4 | -0.6 | -1.3 | -2.3 | · | · | · | -0.3 | -1.4
COCCNC(=O)c1cc(-c2ccccc2C)nn1CC1CC(c2cccnc2)=NO1 (configuration not stated) | -1.5 | · | 0.4 | · | 1.1 | -0.3 | 4.2 | -7.3 | -1.1 | 0.9
CCOC(=O)c1ccc(-c2c(-c3ccccc3OC)sc3cc4c(cc23)OCO4)cc1F | 1.2 | · | -0.3 | · | 1.5 | 13.9 | 1.8 | -1.7 | -7.5 | -6.6
O=Cc1cn(CC(=O)Nc2ccc3c(c2)OCO3)c2ccccc12 | 6.7 | -27.3 | 0.3 | 0.0 | · | -20.2 | -8.6 | -10.5 | 6.5 | -14.0
O=C(c1ccc([N+](=O)[O-])cc1)N1CCc2ccccc2C1 | -0.9 | -7.1 | -0.3 | 21.4 | -1.3 | 8.2 | 6.7 | 3.0 | 3.5 | ·
COC(=O)c1ccc2c(=O)n(CCCCCC(=O)NCCNC(C)=O)c(=O)[nH]c2c1 | 1.6 | -8.6 | 0.4 | -10.5 | -10.0 | 0.0 | -8.2 | -4.2 | 15.8 | ·
COc1ccc(OCC(=O)Nc2c3c(nn2-c2ccccc2)CS(=O)(=O)C3)cc1 | 0.6 | -0.7 | 0.1 | 4.1 | -1.3 | 7.6 | 12.8 | 1.2 | -2.9 | -19.4
O=C1OCc2ccc(NC(=O)c3ccccc3C(=O)O)cc21 | 0.3 | -0.8 | -0.1 | -3.6 | 2.0 | 5.9 | 2.0 | 0.1 | -9.5 | -11.5
CC(c1ccccc1)N1C(=O)NC(NC(=O)c2cccnc2)(C(F)(F)F)C1=O (configuration not stated) | 0.7 | -7.1 | 0.3 | -4.7 | 0.3 | · | · | · | -1.8 | ·
O=C(CN1CCN(S(=O)(=O)c2cc(Cl)ccc2Cl)CC1)c1ccc(O)c(O)c1 | 4.5 | -9.4 | 1.7 | -4.4 | -1.3 | -0.4 | -2.8 | -0.9 | -10.9 | 15.5
Cc1ccc(N2C(=O)C(Cl)=C(N3CCOCC3)C2=O)c(C)c1 | -8.9 | 1.0 | 0.2 | -5.4 | -0.4 | 3.3 | -4.7 | -6.0 | -4.8 | 44.8
COc1cccc(C2CC(=O)Nc3c2c(=O)n(C)c(=O)n3C)c1OC (configuration not stated) | 3.5 | -0.4 | 1.1 | 9.5 | -10.6 | 4.4 | 5.9 | -1.2 | 13.9 | -12.4
O=C(O)c1ccc(CSc2nnc(-c3ccncc3)n2-c2ccc(Cl)cc2)cc1 | 3.1 | -4.8 | 0.3 | 17.0 | -1.7 | 4.7 | 0.0 | -1.3 | -2.3 | -2.2
CCOC(=O)N1CCN(C(=O)CNC2CCCCCCC2)CC1 | 1.9 | 8.3 | 1.0 | -11.0 | -0.2 | 13.9 | 18.1 | -2.9 | 5.6 | ·
CCOC(=O)c1cc(-c2cccc([N+](=O)[O-])c2)nc2[nH]c(=O)[nH]c(=O)c12 | 1.2 | -31.2 | -0.4 | 1.2 | -3.1 | 9.2 | 18.9 | -0.9 | -25.1 | ·
CCOCCOC(=O)c1[nH]c2c(c1C)C(=O)CC(c1ccccc1)C2 (configuration not stated) | 0.9 | 19.1 | 1.2 | -4.1 | 41.6 | 9.1 | 10.9 | 0.5 | 20.4 | -4.4
CCc1ccccc1Nc1nc2ccccc2n1CC | 0.8 | 16.7 | -0.7 | -9.4 | · | 12.6 | 12.1 | -1.9 | 2.4 | 5.0
Cc1cc(=O)[nH]c(SCC(=O)Nc2ccc3c(c2)OCCO3)n1 | -0.7 | -2.7 | 0.0 | -5.3 | -6.6 | -3.1 | -3.3 | -1.8 | -1.0 | -1.7
O=C(CSCCO)Nc1cc(C(F)(F)F)ccc1Cl | 2.8 | -3.2 | -0.1 | -10.8 | 0.6 | 0.6 | -0.9 | 3.2 | 7.5 | -1.5
N#Cc1ccc(S(=O)(=O)NC2CCCCNC2=O)cc1 (configuration not stated) | 0.5 | 0.1 | -0.6 | -3.5 | -4.2 | 12.1 | 13.6 | 0.1 | -3.8 | -15.6
CC(=O)C1=C(C)Nc2ncnn2C1c1ccc(Br)cc1 (configuration not stated) | -0.8 | 25.6 | 0.4 | -7.2 | -6.8 | -0.2 | 6.7 | -0.1 | -0.7 | 0.6
CSCC(C)N1CCC(n2nccc2NC(=O)c2ccccc2C)CC1 (configuration not stated) | 1.5 | 17.8 | 0.4 | -5.2 | 4.5 | 18.4 | 12.9 | -3.5 | 1.1 | -3.7
CC12CCC(C(=O)OC3CCCCC3)(OC1=O)C2(C)C (configuration not stated) | 4.5 | -3.8 | 1.7 | 2.2 | -2.3 | 9.6 | 12.4 | -2.0 | 3.5 | -1.5
O=C(NCCc1ccccc1)C1CCN(S(=O)(=O)N2CCOCC2)CC1 | -1.8 | 27.7 | 0.8 | -7.1 | -5.3 | 5.2 | -3.7 | -0.8 | 6.6 | -1.0
CCC(C)NS(=O)(=O)c1ccc(NC(=O)Cc2ccc(OC)cc2)cc1 (configuration not stated) | 0.3 | -24.4 | -0.7 | 16.3 | -4.9 | -25.0 | -33.5 | -5.4 | 1.5 | ·
O=C(CNC(=O)c1cccs1)Nc1ncccc1O | 1.7 | -14.8 | -0.1 | -2.0 | 3.5 | 7.4 | 11.6 | -1.3 | -4.6 | -5.0
Cc1ccc(S(=O)(=O)NNC(=O)c2sccc2-n2cccc2)cc1 | 2.1 | 0.5 | 0.3 | 21.1 | -2.6 | · | · | · | 0.6 | 51.3
Oc1ccc(C2=CSC3=NCCN23)cc1O | 2.4 | -16.7 | 0.8 | -6.0 | 2.7 | 7.4 | 9.0 | -2.3 | 1.0 | 99.6*
CCCOC(=O)C1=C(C)NC(=O)NC1c1cc2c(cc1Br)OCO2 (configuration not stated) | 3.9 | -2.9 | 1.5 | 0.5 | -3.6 | 1.3 | 1.3 | -1.4 | 0.7 | ·
Cc1cc(OCC(=O)Nc2ccccc2N2CCCCC2)ccc1C(C)C | -5.0 | 36.6 | -0.4 | -8.8 | 13.0 | 3.1 | -0.8 | 0.9 | -4.8 | -1.3
COc1ccc(C(c2nnnn2C2CCCCC2)N2CCN(c3ccc(OC)cc3)CC2)cc1 (configuration not stated) | -5.3 | 33.6 | 0.3 | 0.1 | 3.8 | · | · | · | 30.5 | 12.1
COc1cccc(C(=O)NNC(=O)c2cccc(F)c2)c1 | 0.8 | 0.4 | -0.5 | -10.7 | -6.1 | 3.0 | 21.6 | -0.9 | -1.7 | ·
CCOc1ccc(N2C(=O)/C(=C\c3ccccc3OC)S(=O)(=O)C2c2cccc([N+](=O)[O-])c2)cc1 (configuration not stated) | 2.4 | 2.0 | 0.1 | -5.0 | -4.8 | · | · | · | 21.2 | -3.1
COc1ccc(OC)c(-c2cc(C(=O)NCCCn3ccnc3)no2)c1 | -1.8 | -9.1 | 0.2 | ? | 12.2 | · | · | · | -10.6 | -20.5
O=C(COc1ccc(Cl)cc1)NCc1nnc(SCC(=O)NCc2ccc3c(c2)OCO3)o1 | 4.6 | 5.9 | -0.1 | 1.4 | -9.4 | · | · | · | 0.2 | -20.1
Cc1cccc2cc(CN(CCc3ccccc3)C(=O)N3CCOCC3)c3nnnn3c12 | -4.1 | 23.0 | -0.5 | -0.7 | -1.7 | · | · | · | -0.5 | -2.3
O=C(COC(=O)c1cnc(Cl)c(Cl)c1)Nc1cccc(S(=O)(=O)N2CCOCC2)c1 | -4.7 | · | 0.1 | · | 6.1 | -9.1 | -7.4 | 5.4 | -0.2 | 0.1
C=CCn1c(SCC(=O)Nc2ccc(NC(=O)c3ccco3)c(OC)c2)nnc1-c1ccncc1 | -2.1 | 14.5 | 0.0 | 0.0 | 4.1 | · | · | · | -4.5 | 99.1*
CCn1c(CC(=O)Nc2ccccc2)nnc1SCC(=O)NC1=NCCS1 | -0.1 | 2.0 | 0.3 | 1.1 | -10.0 | 1.0 | 1.1 | 3.7 | -8.4 | ·
Cc1ccc(S(=O)(=O)N2CCN(C)CC2)c(C)c1N(C)S(=O)(=O)c1ccc(Cl)cc1 | -2.3 | 9.6 | -0.3 | -1.6 | -5.8 | · | · | · | 12.6 | 1.3
